NPYLR7 agonist: mosquito NPYLR7 agonism; HEK293T NPYLR7/Galpha15, GCaMP6s calcium fluorescence; activation, % at 10 µM; actives 0.15% (n = 270,000); in the data active = activation above about 40%;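 note: 0% = vehicle and 100% = reference agonist at the receptor; some compounds past the cut are filed as inactive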
NPYLR7 agonist max-min: also measured in NPYLR7 agonist; calls as there; activation, %; measured here: Max-Min RFU normalised activation; some inactives read as strong as hits;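 span of the calcium signal over five minutes; 0% = vehicle and 100% = native peptide agonist; compound fluorescence can raise it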
The depositor's hits bear a star; & = joins results of further samples.

A first look, six compounds:
Results follow in this order: NPYLR7 agonist max-min | NPYLR7 agonist
1: O=C(Cc1ccccc1)NNC(=O)c1ccc[nH]c1=O
  7 | 2
2: Cc1nn(C)c(C)c1-c1c(-c2ccccc2)ncn1C(C)CCc1ccco1 (stereo not drawn)
  28 | 2
3: C=CCN(CC(=O)N1CCc2sccc2C1c1ccc(Cl)cc1Cl)C(=O)c1cccc(OC)c1 (stereo not drawn)
  21 | 11
4: Cc1cccc(-c2nnc(NC(=O)C(NC(=O)Nc3ccc([N+](=O)[O-])cc3)C(C)C)s2)c1 (stereo not drawn)
  -3 | 8
5: CC(C)n1nccc1NC(=O)CSc1ccc2ccccc2n1
  0 | 8
6: N#CCCCOc1ccc(F)cc1
  7 | 3

All compounds of this part, from the first entry:
Results follow in this order: NPYLR7 agonist max-min | NPYLR7 agonist
1: O=C(Cc1ccccc1)NNC(=O)c1ccc[nH]c1=O
  7 | 2
2: Cc1nn(C)c(C)c1-c1c(-c2ccccc2)ncn1C(C)CCc1ccco1 (stereo not drawn)
  28 | 2
3: C=CCN(CC(=O)N1CCc2sccc2C1c1ccc(Cl)cc1Cl)C(=O)c1cccc(OC)c1 (stereo not drawn)
  21 | 11
4: Cc1cccc(-c2nnc(NC(=O)C(NC(=O)Nc3ccc([N+](=O)[O-])cc3)C(C)C)s2)c1 (stereo not drawn)
  -3 | 8
5: CC(C)n1nccc1NC(=O)CSc1ccc2ccccc2n1
  0 | 8
6: N#CCCCOc1ccc(F)cc1
  7 | 3
7: O=C(CSc1nc2[nH]ncc2c(=O)[nH]1)c1ccccc1
  -4 | -4
8: Cc1cccc(-n2nc3c(c2NC(=O)/C=C\c2ccccc2)CSC3)c1C
  -4 | -1
9: CC1(C)C(C(=O)O)N2C(=O)CC2S1(=O)=O (stereo not drawn)
  -11 | -7
10: CN(C)Cc1ccccc1CNC(=O)C1COCCO1 (stereo not drawn)
  8 | 9

Remaining list, next part
Results follow in this order: NPYLR7 agonist max-min | NPYLR7 agonist
11: CCN(Cc1ccc2c(c1)OCCO2)c1ccc2nnnn2n1
  0 | 6
12: Cc1cc(Cl)ccc1OCC(=O)NN=Cc1ccc(O)cc1O
  -9 | -10
13: CCN(CC)c1ccc(NC(=O)c2sc3nc(-c4ccc(OC)cc4)cn3c2C)c(C)c1
  -2 | -2
14: COCCN(Cc1csc(COc2c(OC)cccc2OC)n1)C(=O)c1cccs1
  9 | 6
15: CC(C)c1ccc(C(=O)c2cccs2)c(SCCCCCCCCN(C)C)n1
  -15 | -10
16: Cc1nnc(SCCCNC(=O)c2cccc3ccnn23)s1
  -5 | -3
17: Cc1nc2ncc(-c3cc(NCc4ccccn4)nc4[nH]ccc34)cc2[nH]1
  5 | 7
18: O=C1NCC(=O)N2CCN(Cc3cccc(OC4CCCC4)c3)CC12 (stereo not drawn)
  1 | 0
19: CCOC(=O)C(C)N(Cc1cccn1Cc1ccc(F)cc1)CC1CCCCC1 (stereo not drawn)
  -11 | -3
20: CC(C)COc1nc(-c2ccc3c(c2)OCO3)n(-c2ccc(NCC(O)COCc3ccccc3)cc2)n1 (stereo not drawn)
  3 | -3

Values in list order from above:
Entries 13–17 in NPYLR7 agonist max-min: -2, 9, -15, -5, 5
Entries 13–17 in NPYLR7 agonist: -2, 6, -10, -3, 7

(cont.)
Results follow in this order: NPYLR7 agonist max-min | NPYLR7 agonist
21: Nc1ccc(-c2ccn[nH]2)cc1
  -2 | 1
22: CCC(C)(C)C1CCC(NC(=O)c2ccccc2N(C)S(C)(=O)=O)CC1 (stereo not drawn)
  3 | 5
23: Cc1nc(C(F)(F)F)ccc1C(=O)N1CCC1(C)C(=O)NS(=O)(=O)c1ccccc1 (stereo not drawn)
  -1 | 1
24: Cc1ccccc1Cn1c(=O)c(C(=O)NCc2ccc(F)cc2)nn(-c2ccccc2)c1=O
  11 | 9
25: CC(C)=CC(=O)NCC(=O)Nc1ccc(F)c(F)c1
  1 | -1
26: O=S(=O)(c1ccc(F)cc1)N1CCC(Cc2ccc(-n3cccc3)cc2)CC1
  1 | 4
27: CCC1(CC)N([O-])C(C)=C(c2ccccc2)[N+]1=O
  5 | -3
28: CC(O)CNCc1ccc(-c2ccn(CC(F)(F)F)n2)o1 (stereo not drawn)
  2 | 3
29: CC1=NN(c2nc(C)cc(C)n2)C(=O)C1Cc1ccc(C)cc1 (stereo not drawn)
  -4 | -3
30: COCC(=O)Nc1cccc(-n2nc(OCCc3ccc(OC)cc3)nc2-c2ccc(C(F)(F)F)cc2)c1
  13 | 0

Retrieved by compound from the list above, 2 records:
Results follow in this order: NPYLR7 agonist max-min | NPYLR7 agonist
30: COCC(=O)Nc1cccc(-n2nc(OCCc3ccc(OC)cc3)nc2-c2ccc(C(F)(F)F)cc2)c1
  13 | 0
24: Cc1ccccc1Cn1c(=O)c(C(=O)NCc2ccc(F)cc2)nn(-c2ccccc2)c1=O
  11 | 9

The listing continues:
Results follow in this order: NPYLR7 agonist max-min | NPYLR7 agonist
31: Cc1cccc(-c2nc3ccc(Cl)cn3c2NC(C)(C)CC(C)(C)C)c1
  2 | -4
32: CCn1cc(NC(=O)C(C)Oc2ccc(SC)cc2)cn1 (stereo not drawn)
  3 | 3
33: CC(C)COc1nc(-c2ccc(F)cc2)n(-c2cccc(NC(=O)C(C)C)c2)n1
  26 | 22
34: O=c1[nH]nc(-c2ccc(Cl)cc2)c2ccccc12
  -9 | -1
35: COCCN(Cc1ccc(F)cc1)CC(O)COc1ccc(Cl)cc1 (stereo not drawn)
  38 | 41
36: Cc1cc(C)c(S(=O)(=O)Nc2cccc(Cl)c2N(C)C)cc1C(=O)O
  2 | 5
37: O=S(=O)(Nc1cc2c(cc1Br)OCCO2)c1cccc(Cl)c1Cl
  33 | -1
38: Cn1ccnc1-c1nccn1C1CCCC1
  -6 | -4
39: COC(=O)c1oc(Cn2nnn(-c3ccccc3Cl)c2=O)cc1C
  3 | 7
40: O=C(c1cn(CCc2ccccc2)nn1)N1CCCCC1CCc1ccccn1 (stereo not drawn)
  2 | 5

Later entries:
Results follow in this order: NPYLR7 agonist max-min | NPYLR7 agonist
41: O=C(c1cccs1)N1CCN(c2ccc([N+](=O)[O-])c(N3CCCC3)c2)CC1
  -4 | -2
42: CN1CCC2(CCN(C(=O)c3cccc(Oc4ccccc4)c3)CC2)C1=O
  5 | 2
43: Cc1c(Cl)cccc1NC(=O)C(=O)Nc1ccc2c(c1)N(C(=O)C1CC1)CCC2
  5 | 9
44: O=C(NC1CCCC1)c1cc2nc(-c3ccc(F)cc3)cc(C(F)(F)F)n2n1
  -18 | -11
45: CNc1cncc(-c2ccoc2)n1
  4 | 6
46: CCc1ccc(NC(=O)N(CCCOC)CC(=O)N(Cc2ccco2)Cc2cccn2C)cc1
  16 | 18
47: CN1OC(C)(CC(=O)NCc2ccccc2)N=C1c1ccc(N(C)C)cc1 (stereo not drawn)
  -3 | -2
48: O=C(NCCCn1ccnc1)C12CC3CC(CC(C3)C1)C2
  3 | 4
49: Cc1ccc(-c2nn(-c3ccccc3)cc2/C=N\Nc2ccccc2C(=O)O)o1
  -8 | -7
50: Cc1ccc(C)c(OCC(=O)NCc2nnc3n2CCC3)c1C
  29 | 4

The listing continues.
Results follow in this order: NPYLR7 agonist max-min | NPYLR7 agonist
51: CN(c1ncccc1C(=O)N1C[C@H](N(C)C)C[C@H]1CO)C1CCCCC1
  0 | 1
52: CN1CCC2(CC1)CCN(C(=O)CCC(=O)c1ccc(F)cc1)C2
  -5 | 2
53: CC1CCCN(C(=O)NC(c2ccccc2)c2cc3ccccc3o2)C1 (stereo not drawn)
  496 | -1
54: COc1cccc(Cc2nsc(N3CCN(C(=O)Nc4ccccc4Br)C(C)C3)n2)c1 (stereo not drawn)
  -13 | -9
55: Cc1[nH]ncc1CNC(=O)c1ccccc1OC(C)C
  -10 | -2
56: O=C(Nc1c(F)cc(Br)cc1F)NC1CCC(O)CC1 (stereo not drawn)
  1 | 5
57: NC(=NOC(=O)CC1CCCCC1)c1ccccc1
  6 | -5
58: COc1cc(CN2CCC(NC(=O)c3ccccc3N=NN(C)C)C2)cc2c1OCO2 (stereo not drawn)
  -12 | -7
59: COCCN(CCOC)C(=O)c1cnc2c(c(C)nn2-c2ccccc2)c1Cl
  1 | 6
60: Cc1cc(C)n(-c2ccc(NC(=O)C3CCN(Cc4cccc(F)c4)CC3)cc2)n1
  -3 | -1

Further compounds
Results follow in this order: NPYLR7 agonist max-min | NPYLR7 agonist
61: Cc1ccc(S(=O)(=O)c2nc(SCC(=O)c3ccccc3)sc2N2CCOCC2)cc1
  5 | 0
62: COCCNC(=O)[C@@H](C)N1Cc2ccc(NCC(C)C)nc2C1=O
  0 | 0
63: Cc1ccn(-c2ccc(Nc3ccc(NC(=O)CCc4ccccc4)cc3)nn2)n1
  -9 | -3
64: CN(C)c1cc2c(Nc3ccc4c(cnn4Cc4ccccc4)c3)ncnc2cn1
  -25 | 6
65: CN(CCOc1ccc(O)cc1)C(=O)C(c1ccccc1)n1cccn1 (stereo not drawn)
  14 | 21
66: CN1C(=O)C=C(Nc2ccccc2C(=O)O)C1=O
  3 | 2
67: CC(=O)c1ccc(N2CCCC2)c([N+](=O)[O-])c1
  -14 | -13
68: CCCNC(=O)c1nnc2n1CCN(C(=O)c1ccncc1)C2
  2 | 8
69: CCOC(=O)C1(CCCc2ccccc2)CCN(C(=O)C2=C(C)OCCO2)CC1
  3&11 | 18&12
70: CCc1nnc(NC(=O)c2cccc(OCc3csc(C)n3)c2)s1
  -7 | -6

The list continues.
Results follow in this order: NPYLR7 agonist max-min | NPYLR7 agonist
71: NS(=O)(=O)c1ccc(NC(=O)CCN2CCCc3ccccc32)cc1
  1 | 0
72: CC(=O)c1ccc(OC(=O)c2ccc(Br)c([N+](=O)[O-])c2)cc1
  14 | 10
73: O=C(N=Nc1c(O)[nH]c2ccc(F)cc12)c1cccc(O)c1
  9 | -2
74: Cc1nc2c(C)cccn2c(=O)c1NC(=O)Cc1ccccc1
  1 | 4
75: Cc1cccc(N2CCN(CC(=O)N3CCc4ccccc4C3)CC2)c1C
  3 | 0
76: CSc1nn(-c2ccccc2)c(NC(=O)CC2CC3CCC2C3)c1C#N (stereo not drawn)
  1 | 7
77: CCOc1ccc2ccc(OCC)c(/C=N\n3cnnc3)c2c1
  -15 | -10
78: Cc1ccc(S(=O)(=O)N(CC(=O)NC(C)(C)C)C(=O)N2CCN(C)CC2)cc1
  1 | 5
79: O=C(COC(=O)C=Cc1cccs1)NC1CC1
  -8 | -6
80: O=C(OCC1CC(=O)N(Cc2ccccc2)C1)c1n[nH]c2c1CCC2 (stereo not drawn)
  5 | 7

Remaining list, next part:
Results follow in this order: NPYLR7 agonist max-min | NPYLR7 agonist
81: N#Cc1cc2c(=O)n3ccccc3nc2n(CC2CCCO2)c1=N (stereo not drawn)
  -25 | -17
82: Cn1cnc([N+](=O)[O-])c1C(=O)Nc1cccc([N+](=O)[O-])c1
  2 | 2
83: CC1(C(=O)NS(=O)(=O)c2ccc(C#N)cc2)CCN1C(=O)c1cccc2ccccc12 (stereo not drawn)
  1 | 3
84: Cc1c(Br)c(C(F)(F)F)nn1CC(=O)N(C)C1CCCCC1
  -8 | -3
85: O=c1[nH]nc(CCCO)n1CCc1ccccc1F
  9 | 12
86: CC[C@H](NCC(=O)Nc1ccccc1NC(C)=O)c1ccccc1
  -12 | -5
87: CC(C)(C)c1ccc(NC(=O)NCCn2nc(-c3cccnc3)ccc2=O)cc1
  0 | 8
88: CC1(C(=O)Nc2cccc3cccnc23)CCN1Cc1ccc(-c2ccccc2)o1 (stereo not drawn)
  3 | 5
89: CCOC(=O)C1(O)CCN(Cc2cccc(F)c2F)CC1
  -2 | -1
90: CC1(C)N=C(c2ccc(Br)cc2)C(=S)N1
  3 | 6

Additional structures.
Results follow in this order: NPYLR7 agonist max-min | NPYLR7 agonist
91: C=CCN1CCCC1CNC(=O)c1cc2[nH]nnc2cc1OC (stereo not drawn)
  -10 | -8
92: CCNC(=O)c1ccc(Cl)cc1N
  -4 | -7
93: CCN(CC)CCCC(C)Nc1c2ccc(Cl)cc2nc2ccc(OC)cc12 (stereo not drawn)
  70* | 67*
94: Cc1cc(C#N)ccc1N1CC2CCC1C2 (stereo not drawn)
  -1 | 1
95: COc1ccc(C2CCCN2C(C)C(=O)Nc2ccc(F)c(F)c2)cc1 (stereo not drawn)
  9 | 8
96: CN1CCN(c2ccc(NC(=O)c3ccc(S(C)(=O)=O)cc3)cc2)CC1
  0 | 5
97: CCOC(=O)Cn1c(=NC(=O)c2ccc(C#N)cc2)sc2c(C)cc(C)cc21
  2 | 2
98: CNc1ccc(C(=O)NCCCc2c(C)noc2C)cn1
  1 | 2

Six entries out of the list, arranged by length of the SMILES, lowest first.
Results follow in this order: NPYLR7 agonist max-min | NPYLR7 agonist
92: CCNC(=O)c1ccc(Cl)cc1N
  -4 | -7
94: Cc1cc(C#N)ccc1N1CC2CCC1C2 (stereo not drawn)
  -1 | 1
98: CNc1ccc(C(=O)NCCCc2c(C)noc2C)cn1
  1 | 2
91: C=CCN1CCCC1CNC(=O)c1cc2[nH]nnc2cc1OC (stereo not drawn)
  -10 | -8
95: COc1ccc(C2CCCN2C(C)C(=O)Nc2ccc(F)c(F)c2)cc1 (stereo not drawn)
  9 | 8
96: CN1CCN(c2ccc(NC(=O)c3ccc(S(C)(=O)=O)cc3)cc2)CC1
  0 | 5

Only part of the results is shown, so the mix of outcomes need not match the whole.
